Arbovirus inh: antivirals against arbovirus infection; arbovirus infection cell-based antiviral screen; inhibition, % at 10 µM; 0.37% of 200,000 active; AID 1251;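 active = inhibition from about 30%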;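 note: bluetongue infection of BSR cells; cell survival read as ATP light after 72 h; 0% = infected wells without compound and 100% = uninfected wells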
RecA intein inh: inhibitors of M. tuberculosis RecA intein splicing | P9WHJ3 | cell-free RecA intein splicing, fluorescence | inhibition, %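 (about 9 µM by stock and volumes)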 | 0.75% of 290,000 active | AID 2221; in the data active = inhibition above about 30%; inconclusive = no clear call, values can overlap the other calls;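 note: 0% = vehicle wells and 100% = reference inhibitor control wells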
Target sequence (P9WHJ3 whole entry, looked up): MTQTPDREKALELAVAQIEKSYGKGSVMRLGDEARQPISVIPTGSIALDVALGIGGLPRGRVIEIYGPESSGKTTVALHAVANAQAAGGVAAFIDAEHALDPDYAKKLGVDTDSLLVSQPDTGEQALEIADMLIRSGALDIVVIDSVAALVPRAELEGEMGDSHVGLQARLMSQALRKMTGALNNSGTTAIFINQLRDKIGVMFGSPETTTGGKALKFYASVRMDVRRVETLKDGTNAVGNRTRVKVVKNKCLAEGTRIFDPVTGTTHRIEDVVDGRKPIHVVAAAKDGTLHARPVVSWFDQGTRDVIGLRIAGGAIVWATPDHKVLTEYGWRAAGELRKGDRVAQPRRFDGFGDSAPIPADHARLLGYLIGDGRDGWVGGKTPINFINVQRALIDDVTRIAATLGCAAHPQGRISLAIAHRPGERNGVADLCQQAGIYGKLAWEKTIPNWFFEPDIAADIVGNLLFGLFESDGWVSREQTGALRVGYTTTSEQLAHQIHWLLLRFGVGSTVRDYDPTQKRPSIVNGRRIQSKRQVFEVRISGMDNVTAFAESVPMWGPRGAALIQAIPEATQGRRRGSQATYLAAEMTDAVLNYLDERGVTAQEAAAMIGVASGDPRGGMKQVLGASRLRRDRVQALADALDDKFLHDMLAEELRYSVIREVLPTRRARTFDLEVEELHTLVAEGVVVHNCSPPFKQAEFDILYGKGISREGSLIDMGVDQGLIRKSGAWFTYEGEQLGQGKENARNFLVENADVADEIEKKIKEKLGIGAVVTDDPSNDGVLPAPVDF
YopH PTP inh: YopH (Yersinia) phosphatase inhibition | fluorescence Ex485/Em525 | inhibition, %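 (about 10 µM by stock and volumes)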 | 0.16% of 140,000 active;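 active = inhibition of 50% or more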;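 note: controls were vehicle for no effect and minimum signal wells for full effect; inactives centre near -20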
Mtb growth: M. tuberculosis H37Rv growth inhibitors, H37Rv strain (AID 1626). M. tuberculosis H37Rv growth inhibition; higher % means a stronger effect. inhibition, % at 10 µM; hits with a dose series show IC50 in µM. 0.95% of 220,000 active;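 active = confirmed in a dose series; inconclusive = inhibition above 80% but not taken into the dose series; inactive = below 80% or under 30% at every dose of the series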;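 note: bacteria incubated seven days before Alamar blue readout; 0% = bacteria only wells and 100% = bacteria with antibiotic wells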
Mtb bLac sens: beta-lactam sensitization of Mtb H37Rv; M. tuberculosis H37Rv growth with meropenem, percent inhibition; hits of this screen are not shown here; inhibition, % at 25 µM; 0.27% of 330,000 active;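 active = about 74% or more and at least 40 points above the plate without the antibiotic, then above 30% in a dose series; inconclusive = first-round hits that could not be retested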;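 note: growth measured after seven days incubation then overnight dye step; 0% = bacteria only wells and 100% = bacteria with antibiotic; twin plates without the antibiotic show which effects depend on it; some results filed as inactive read as strong as hits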
Arbovirus inh repeat: second read-out of Arbovirus inh, no call of its own (marks repeat the call); inhibition, %; measured here: 10K subset replicate screen; many hits read low in the repeat;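 first of two repeat runs on a subset; 0% = infected and 100% = uninfected wells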
The depositor's hits bear a star; ? = inconclusive; . = no result given; & = joins results of further samples. A portion of the library; count on the stated rates, not on these rows.

SMILES | Arbovirus inh | RecA intein inh | YopH PTP inh | Mtb growth | Mtb bLac sens | others
CCC(=O)N1N=C(c2ccccc2)CC1c1ccc([N+](=O)[O-])cc1 (stereo not drawn) | 11 | 1.0 | -23 | 0% | -1
Cn1cnnc1SCC(=O)N/N=C/c1ccc(OCC(N)=O)cc1 | . | 0.4 | . | . | -6
CC1c2[nH]c3ccccc3c2CCN1C(=O)Nc1ccccc1 (stereo not drawn) | -18 | 3.6 | -22 | 7% | -9
Cc1noc2c1C(c1ccc(N(C)C)cc1)C1=C(CC(C)(C)CC1=O)N2 (stereo not drawn) | -14 | 1.0 | -18 | 1% | -5
COc1ccc(/C=N/Nc2ncc(C(F)(F)F)cc2Cl)cc1OC | 6 | -4.7 | 8 | 5% | -5
COC(=O)c1c(NC(=O)CCl)sc(C(=O)N2CCOCC2)c1C | . | 25 | . | . | 94
CC1(C)Cc2c(cnn2-c2ccc(F)cc2)C(NC(=O)CN2CCCC2=O)C1 (stereo not drawn) | . | 4.0 | . | . | -2
O=C(Nc1c(C(=O)N2CCN(c3ccccn3)CC2)oc2ccccc12)c1cccc([N+](=O)[O-])c1 | . | 3.6 | . | . | 6
O=C(O)CCSc1nc2ccccc2c(=O)[nH]1 | 4 | 3.1 | -18 | -3% | -3
O=C(c1ccc(=O)[nH]n1)N1CCN(S(=O)(=O)c2ccc3ccccc3c2)CC1 | 4 | -1.0 | . | -1% | -7
c1coc(-c2nc(-c3ccncc3)no2)c1 | -3 | -1.6 | -13 | 9% | 5
O=C(Nc1ccccn1)C1CCCN(c2ncnc3c2nc2n3CCCCC2)C1 (stereo not drawn) | . | -2.5 | . | . | -4
CCCCCCCCCSc1n[nH]c(N)n1 | 1 | -5.5 | -19 | 0% | 2
COc1ccccc1NC(=O)C1CCCN(c2nc(C)cc(C)n2)C1 (stereo not drawn) | -8 | -4.2 | 2 | -1% | 12
CCOc1ccc(NC(=O)N2CCC(n3nnc4cc(C)ccc43)CC2)cc1 | 1 | -5.6 | -7 | 3% | 5
CCn1c(CNC(=O)C(C)(C)C)nc2ccccc21 | 8 | -1.4 | 1 | 5% | -1 | Arbovirus inh repeat=1
CC(C)CCNC(=O)C(c1ccco1)N(Cc1cccs1)C(=O)Cn1nnc2ccccc21 (stereo not drawn) | 2 | -0.8 | -36 | -14% | .
COc1cccc(NC(=O)CSc2nc3ccccc3nc2N2CCOCC2)c1 | . | -0.5 | . | . | -7
CC(C)(C)NC(=O)C1CC1(c1ccccc1)c1ccccc1 (stereo not drawn) | . | 0.5 | . | . | 6
CCOc1ccc(N2C(=O)/C(=C/c3ccco3)N(C)C2=S)cc1 | -3 | 1.5 | -11 | ? | 86
CCOc1ccc(C(=S)N2CCCC2)cc1OCC | . | 2.0 | . | . | -15
COc1cc(/C=N/NC(=O)Cc2ccccc2)ccc1Oc1ccc([N+](=O)[O-])cc1[N+](=O)[O-] | 0 | . | -25 | 5% | 3
COC(=O)[C@@H]1C[C@@]2(O)[C@@H](O)[C@@H](O)[C@@H](O)C[C@H]2N1CC(c1ccccc1)c1ccccc1 | . | -1.0 | . | -23% | -4
N#Cc1ccccc1S(=O)(=O)Nc1ccc2c(c1)C(=O)OC2 | . | 0.9 | . | 4% | -2
COc1ccc(N2CCN(C(=O)Cn3nnc(-c4ccccc4N)n3)CC2)cc1 | -13 | -6.8 | . | 0% | -1
CCc1nnc(NS(=O)(=O)c2ccc(NC(=O)c3cccc(OC)c3)cc2)s1 | . | 3.5 | . | . | 9
O=C(NCCCN1CCC(Cc2ccccc2)CC1)c1ccc2nc(N3CCOCC3)sc2c1 | . | 0.3 | . | 66% | 97
COc1ccc(NC(C)=O)cc1NC(=O)CN1CCN(c2ccccn2)CC1 | 14 | 2.1 | -28 | . | 2
COc1ccccc1OCc1ccc(C(=O)NCCN(C)C)o1 | 0 | 1.3 | -40 | 1% | -8
O=c1c2c3n(c(=S)nc2[nH]n1-c1ccccc1)CCCCC3 | 8 | . | -36 | -6% | .
CN(C)C(=O)C(=O)c1cccn1-c1ccccc1C#N | -2 | -97 | -23 | -13% | -9
O=c1c2[nH]c3ccc(F)cc3c2ncn1CCC1=CCCCC1 | . | 1.0 | . | 2% | -6
CCOC(=O)CSc1nnc(CNC(=O)c2ccc(S(=O)(=O)N3CCCCC3)cc2)n1C | -1 | . | -23 | -13% | -9
CCOC(=O)C1(Cc2ccc(OC)cc2)CCN(C(=O)C2CCCO2)CC1 (stereo not drawn) | 4 | 1.7 | . | 8% | 2
CC12CCC(C(=O)NCc3ccccn3)(OC1=O)C2(C)C (stereo not drawn) | 12 | -1.4 | -37 | -4% | -3
O=C(CCS(=O)(=O)Cc1ccccc1)N1CCN(Cc2ccccc2)CC1 | 4 | -1.0 | -4 | -3% | 4
COc1ccc(CN/C=C2\CCCCC2=O)cc1 | 2 | -0.2 | -11 | 2% | -6
CCCn1c(CCNC(=O)c2ccco2)nc2ccccc21 | . | 2.0 | . | . | -5
O=C(CSc1nnc(-c2ccncc2)n1CC1CCCO1)Nc1ccccc1Cl (stereo not drawn) | -2 | -2.6 | . | 2% | 2
CC1=C(C(=O)OCc2ccccc2)C(c2ccc(Cl)cc2)NC(=O)N1C (stereo not drawn) | . | -1.7 | . | . | 7
CCCCN(CCCC)c1nc2ccccc2nc1NS(=O)(=O)c1ccc(NC(C)=O)cc1 | -5 | -34 | -16 | -8% | -5
CCSc1nnc(-c2cnn(-c3ccccc3)c2-n2cccc2)n1C | 3 | 0.3 | 18 | -2% | -10
CCOC(=O)N1C(=O)[C@](c2ccc(Cl)cc2)(C(C)C)N1C(=O)OCC | . | 34* | . | . | 6
Cn1c(N=Nc2ccc(N3CCOCC3)cc2)[n+](C)c2ccccc21 | -4 | -15 | . | 3% | .
Cc1nccc(-c2cc(-c3ccc(Cl)cc3Cl)no2)n1 | . | 2.5 | . | 1% | 4
CCn1c2c(c(=N)c3ccccc31)CCC2 | . | 0.0 | . | . | -11
Cn1c(=O)[nH]c(=O)c2c1ncn2CCN1CCOCC1 | -6 | -1.7 | -12 | 1% | 0
N#C/C(=C\N1CCOCC1)c1ccccc1 | 4 | 0.6 | -2 | -1% | 5
COc1cccc(Oc2nccc(N(C)C)c2C#N)c1 | 0 | . | . | 7% | 2
CCCCC1=CC2=CC(=O)C(C)(OC(=O)CC)C(=O)C2=CN1Cc1ccc2c(c1)OCO2 (stereo not drawn) | . | -6.5 | . | 0% | -1
Cc1cc(C)c(NC(=O)CSc2ccc3nnc(CCNC(=O)c4ccccc4)n3n2)c(C)c1 | 5 | -3.6 | -10 | -9% | -6
COc1cccc(CNC(=O)C(Cc2ccccc2)n2cccc2)c1 (stereo not drawn) | . | 5.3 | . | 6% | .
O=C(Nc1ccc(F)c(F)c1)C1CCN(S(=O)(=O)c2cccc3nonc23)CC1 | . | -0.2 | . | . | -5
Cn1c(=O)c2c(nc(N3CCOCC3)n2Cc2c(F)cccc2Cl)n(C)c1=O | 14 | -0.3 | -13 | -3% | 1
N/C(=N\OC(=O)C12CC3CC(CC(C3)C1)C2)c1ccncc1 | . | 2.4 | . | -1% | 2
Nc1n[nH]c(-c2ccccc2[N+](=O)[O-])n1 | 1 | 0.8 | -23 | 7% | -3
Cc1ccc2oc(-c3ccco3)nc2c1 | -5 | -1.7 | -37 | 1% | 2
O=C(Cc1ccc(Cl)cc1)Nc1ccc2c(c1)C(=O)NC2=O | -5 | -1.0 | . | -2% | 4
Cn1nnc2c(C(N)=O)ncn2c1=O | 6 | . | . | -9%&-8% | -2
COC(=O)c1ccccc1OP1(=O)COc2ccccc2OC1 | 4 | -1.5 | -47 | -11% | -12

Remaining list, next part.
SMILES | Arbovirus inh | RecA intein inh | YopH PTP inh | Mtb growth | Mtb bLac sens | others
CC(=O)c1cccc(NC(=O)CC2SC(N3CCCCC3)=NC2=O)c1 (stereo not drawn) | 4 | -0.8 | -31 | 6% | 4
Cc1ccc(Cl)c(OC(=O)C2CSC3(C)CCC(=O)N23)c1 (stereo not drawn) | . | -1.4 | . | . | 0
COc1ccc(/C=C2\CCCC3C2=NN(C(=O)c2ccco2)C3c2ccc(OC)c(OC)c2)cc1OC (stereo not drawn) | -18 | -0.1 | -32 | 1% | 18
Nc1ccc2c(c1)ncn2CCCn1cnc2cc(N)ccc21 | 6 | 0.6 | -43 | -8% | -5
COc1cc(NC(=S)NC(=O)CC(C)C)ccc1NC(=O)c1cc2ccccc2o1 | 7 | -2.1 | -18 | 3% | 0
CCOC(=O)CSc1nc2ccccc2c(=O)[nH]1 | 1 | 0.9 | . | 3% | 0 | Arbovirus inh repeat=12
CC1=C(C(=O)OCC2CCCCC2)C(c2cccc(O)c2)NC(=O)N1 (stereo not drawn) | . | 3.3 | . | . | 1
CC(=O)c1c(O)cc(=O)n(-c2ccccc2)c1-c1ccc(C)cc1 | 5 | -0.3 | -1 | 1% | -7
O=C(COC(=O)C12CC3CC(CC(C3)C1)C2)NCCCc1ccccc1 | 4 | 4.4 | -22 | -7% | 3
COc1cc(C(=O)N2CCCCCCC2)ccc1OC1CCN(C(C)=O)CC1 | . | 2.0 | . | . | -10
FC(F)Oc1ccccc1NC(=S)Nc1cccc(Cl)c1Cl | 3 | 3.1 | -17 | 3% | -8
COc1ccc(Cl)cc1NC(=O)CSc1nc(N2CCOCC2)nc(N2CCOCC2)n1 | . | 4.6 | . | . | -17
COc1ccc(/C(C)=N/NC(=O)CNC(=O)c2cccs2)cc1OC | 0 | -0.4 | . | 5% | -2
CC(C)CC(=O)N1CCN(Cc2ccc(Br)cc2)CC1 | . | 1.1 | . | . | -2
Cc1ccc(C)c(-n2cc(CN3CCN(C(=O)c4ncn[nH]4)CC3)c(-c3ccccc3)n2)c1 | 4 | 2.1 | . | -11% | 6
CCCC1(C(=O)OC)NC(c2ccco2)C2C(=O)N(C)C(=O)C21 (stereo not drawn) | 3 | 1.0 | . | 4% | -5
COc1ccc(NC(=O)c2cccnc2Nc2ccccc2)cc1 | 0 | -1.4 | -14 | 12% | -12
Cc1cnc(NC(=O)CCCSc2nc3ccccc3s2)s1 | 6 | . | -17 | 3% | -2
c1ccc(-c2cc3c(NCC4COc5ccccc5O4)ncnc3s2)cc1 (stereo not drawn) | -2 | 18 | -22 | >100µM* | 3
O=C(Nc1ccc(-n2ccnc2P(=O)(O)c2ccccc2)cc1)c1ccccc1Br | 1 | -3.6 | -6 | . | 3
CCOC(=O)C1CCN(C(=O)c2oc3ccc(S(=O)(=O)N4CC(C)CC(C)C4)cc3c2C)CC1 (stereo not drawn) | 14 | 11 | -11 | -3% | -13 | Arbovirus inh repeat=9
O=C1CCCc2nn(-c3ccccc3)nc21 | -3 | -0.4 | -18 | -10% | -3
CCOC(=O)C(C)NC(=O)c1cn(-c2ccc(OC)cc2)c(=O)c2ccccc12 (stereo not drawn) | . | -1.5 | . | . | 46
COc1ccc(Br)cc1CN1CCN(c2ncccn2)CC1 | . | -2.1 | . | . | -8
CC1(C)OC(=O)C(=NNc2ccc(Br)cc2)C(=O)O1 | -27 | -2.1 | -23 | 77% | 80
CCNc1ccc(S(=O)(=O)N(C)C)cc1NCC(=O)Nc1ccccc1Cl | 2 | -2.4 | . | -2% | 0
COCCCNC(=O)CNC(=O)c1nn(-c2ccc(OC)c(Cl)c2)c(=O)c2ccccc12 | . | 0.1 | . | . | 2
O=C1CCCN1CCCNc1ncnc2c1[nH]c1ccccc12 | 3 | 1.5 | -37 | -10% | -7
COC(=O)C1(CC2CC(c3ccc(Cl)cc3)=NO2)CCN(C(=O)OC(C)(C)C)CC1 (stereo not drawn) | . | 6.9 | . | . | 22
CSc1nnc(-c2cccc(C)c2)n1N | 7 | 3.9 | -40 | 3% | -3

Compound activity deposited in PubChem by several laboratories.
